LANA-H2A inh – blocks KSHV LANA binding to histone H2A/H2B; Q9QR71; cell-free LANA-H2A/H2B peptide, fluorescence polarization; inhibition, % (test concentration not listed); 320,000 tested, 0.6% active; AID 2629; in the data active means inhibition mostly above about 10%, no sharp cut-off; inactive means mostly below about 6.7%;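 further: stock transfer was 7.5 nL into about 10 µL; 0% = median of vehicle wells and 100% = median of positive control wells; one replicate is shown; the record names a cut of 25% in any replicate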
B2AR ag – human beta-2 adrenergic receptor agonism by FAP; P07550; Am2.2-beta2AR cells, FAP receptor internalization, flow cytometry; reference of the scale not given here; response, % (no concentration beside the values); 340,000 tested, 0.43% active;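 active means response above a set limit, near 3 SD of response in nonfluorescent compounds, cut at about 42% in these data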;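 further: stock transfer was 100 nL into about 11 µL; a reference agonist was the positive control; negative values mostly stem from fluorescent compounds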
Target sequence (P07550 whole entry, looked up): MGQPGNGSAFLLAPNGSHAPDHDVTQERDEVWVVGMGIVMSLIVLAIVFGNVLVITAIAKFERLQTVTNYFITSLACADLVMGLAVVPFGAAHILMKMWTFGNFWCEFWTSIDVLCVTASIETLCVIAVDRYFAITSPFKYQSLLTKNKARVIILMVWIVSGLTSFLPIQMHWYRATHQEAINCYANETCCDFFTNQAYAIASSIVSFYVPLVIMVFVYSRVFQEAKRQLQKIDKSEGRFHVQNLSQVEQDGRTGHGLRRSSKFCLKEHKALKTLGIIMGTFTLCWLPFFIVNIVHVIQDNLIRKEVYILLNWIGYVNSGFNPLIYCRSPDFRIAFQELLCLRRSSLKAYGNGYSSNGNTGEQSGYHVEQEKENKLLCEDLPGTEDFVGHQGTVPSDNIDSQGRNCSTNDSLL
HNF4A DNA FP – change in binding of human HNF4 alpha to DNA; activity change, % at 10 µM; 360,000 tested, 0.3% active; AID 1224865; HNF4a-FITC DNA binding, fluorescence polarization, 1 h; P41235; in the data active means activity change above about 30%, passing the limit was not always enough;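 further: controls were the assay level and a saturating level of protein; the project sought stronger binding though the title names inhibitors; some compounds called inactive have numbers as strong as hits; positive values seem to mean higher polarization but the record does not say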
ALR H2O2 inh – inhibitors of human sulfhydryl oxidase ALR | purified ALR, DTT oxidation, H2O2 HRP-luminol luminescence | inhibition, % (concentration not given with the values) | 290,000 tested, 3.8% active | AID 485317;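 active means mean and each replicate at 75% or more; inconclusive means only one of the two met; inactive means neither met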;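 further: stock transfer was 7.5 nL into about 7.5 µL; 0% = neutral wells and 100% = wells with inactivated enzyme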
Target sequence (P55789 whole entry, looked up): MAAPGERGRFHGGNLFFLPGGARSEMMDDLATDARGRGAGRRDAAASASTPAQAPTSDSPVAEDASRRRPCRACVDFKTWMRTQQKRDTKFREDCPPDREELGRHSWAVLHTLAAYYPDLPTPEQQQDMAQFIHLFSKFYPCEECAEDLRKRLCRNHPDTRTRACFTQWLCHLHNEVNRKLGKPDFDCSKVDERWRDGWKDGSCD
UCH37 inh – human UCH37 deubiquitinating enzyme inhibition. Q9Y5K5. purified proteasome/UCH37, Ub-AMC cleavage fluorescence. inhibition, % (concentration not given with the values). 330,000 tested, 0.33% active. AID 588478;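 active means mean of two replicates above 20%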;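 further: 0% = compound-free wells with enzyme and 100% = wells lacking proteasome; stock transfer was 100 nL into about 20 µL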
Target sequence (Q9Y5K5 whole entry, looked up): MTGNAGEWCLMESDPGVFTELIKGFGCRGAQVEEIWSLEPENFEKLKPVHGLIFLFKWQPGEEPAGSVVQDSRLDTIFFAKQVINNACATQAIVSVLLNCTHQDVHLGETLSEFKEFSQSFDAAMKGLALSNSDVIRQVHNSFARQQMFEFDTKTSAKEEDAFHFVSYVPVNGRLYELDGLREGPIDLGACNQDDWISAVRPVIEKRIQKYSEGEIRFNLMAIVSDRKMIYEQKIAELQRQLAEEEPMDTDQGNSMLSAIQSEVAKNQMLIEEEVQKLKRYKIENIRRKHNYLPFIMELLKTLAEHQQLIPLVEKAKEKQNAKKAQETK
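system = Proteasome-associated human UCH37 deubiquitinase | amount = 0.15 nM proteasome as dispensed | medium = pH 7.4 Tris-HCl (50 mM) with ovalbumin, ATP-MgCl2, DTT | incubation = 30 min preincubation with enzyme, 25 min cleavage at room temperature | detection = AMC fluorescence 355/460 nm | read-out basis = percent inhibition | controls = no-proteasome and no-compound wells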
E coli growth – blocks Escherichia coli growth; OD600, 23 h; hits give low values; OD600 absorbance (test concentration not listed); 330,000 tested, 0.21% active; AID 1053175;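 active means OD600 absorbance below the run mean of sample wells minus 3.6 SD, in any replicate, cut at about 0.56 in these data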;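 further: stock transfer was 300 nL into about 60 µL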
FGF22 binding – shifts melting point of recombinant human FGF22 | recombinant FGF22 thermal shift, SYPRO orange fluorescence; percent of sucrose octasulfate shift, DMSO zero | 340,000 tested, 1.5% active | AID 651658 | Q9HCT0 | calls only at 9.99 µM;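 active means melting point raised past a set limit in the mean and every replicate; inconclusive means no clear call; three in four hits are not shown here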
The depositor's hits bear a star; i = inactive; ? = inconclusive; / = not tested or not shown.

SMILES	LANA-H2A inh	B2AR ag	HNF4A DNA FP	ALR H2O2 inh	UCH37 inh	E coli growth	FGF22 binding
CCOCCCNC(=O)CCn1ccc2cc(S(=O)(=O)N3CCCC3)ccc21	4.4	-1	0.8	0	1.2	0.65	i
CCCC(O)(c1ccccc1)C(CN1CCOCC1)c1ccccc1 (stereo unspecified)	6.8	-3	-1.7	-5	5.1	0.69	i
CCN(C(=O)c1cc2c(s1)-c1ccccc1S(=O)(=O)C2)c1cc(OC)ccc1OC	0.6	2	0.3	-7	1.0	0.67	i
O=C(NCCCN1CCOCC1)c1c(F)c(F)c(F)c(F)c1F	-4.6	6	1.2	-5	2.2	0.67	i
C/C=C(\C)C(=O)NNC(=O)c1sc(-c2ccccc2)nc1C	1.5	8	-2.1	5	8.0	0.65	i
Cc1cccc(CN2CCC(n3nccc3NC(=O)c3ccccc3C)CC2)n1	4.9	-6	4.6	-16	3.1	0.64	i
CCn1nc(NS(=O)(=O)c2ccc(NC(C)=O)cc2)c2cc3cc(C)ccc3nc21	14	4	0.7	2	2.2	0.69	i
CC12CN3CC(C)(CN(C1)C3c1ccccc1Cl)C2O (stereo unspecified)	-4.5	-5	-3.1	-8	0.8	0.67	/
CC(C)C(=O)Nc1cccc(-c2nc3ccccc3c(=O)o2)c1	1.6	14	0.3	6	4.1	0.71	/
CC(C)(C)c1ccc(C(=O)NCCCn2ccnc2)cc1	-0.5	3	-0.6	-9	/	/	i
Cc1[nH]nc2c1C(c1ccccc1F)NC2=O (stereo unspecified)	1.8	-9	-0.9	-14	5.1	0.76	i
CCOC(=O)c1c(NC(=O)N/N=C/c2ccccc2OCC)sc(C(C)=O)c1C	/	0	-0.5	/	/	/	i
O=c1cc(O)c2sc(Nc3ccc(Cl)c(F)c3)nc2[nH]1	-2.3	0	9.2	19	7.1	0.6	i
O=C1OCCC1Sc1nc2ccccc2c(=O)n1-c1ccc(F)cc1 (stereo unspecified)	0.3	-4	5.1	1	1.2	0.71	i
CCCc1nnc(NC(=O)C(CC)OC(=O)c2cc(C)nc3ccccc23)s1 (stereo unspecified)	2.7	-7	5.3	-5	1.9	0.66	/
O=C(C1CCCN(S(=O)(=O)c2ccccc2)C1)N1CCCCC1 (stereo unspecified)	3.7	-9	1.8	2	-2.8	0.68	i
C[n+]1ccn(CC(=O)c2ccc(Br)cc2)c1	-3.2	-3	-4.2	4	0.3	0.71	/
O=C(O)CCCC(=O)NCCCCc1ccccc1	-2.9	8	-1.2	-4	1.5	0.74	/
CC(=O)NC(CC(=O)Nc1nc(-c2ccc(N(C)S(C)(=O)=O)cc2)cs1)c1ccccc1 (stereo unspecified)	-5.2	5	1.6	1	-5.7	0.65	i
Cc1ccc2c(c1)N(C(=O)CCC(=O)NCCCN1CCOCC1)CCO2	-7.1	1	2.4	-4	1.8	0.7	i
CC1CN(S(=O)(=O)c2ccc(NC(=O)c3ccco3)cc2)CC(C)O1 (stereo unspecified)	-6.0	-4	3.4	4	0.0	0.7	/
CC(=O)n1cc([C@H]2C=C(C(=O)N3CCN(Cc4ccccc4)CC3)O[C@@H](OCCCCO)C2)c2ccccc21	4.7	-11	-1.6	/	1.6	/	i
O=S(=O)(c1ccc(=S)[nH]c1)N1CCCC1	2.7	-1	-3.5	32	7.3	0.72	i
Cc1cccc(Cn2c(SCCN3CCCCC3)nc3c2c(=O)[nH]c(=O)n3C)c1	-2.6	16	2.7	0	2.7	0.75	i
CSCCC(NC(=O)c1ccc(Cl)cc1)C(=O)OCC(=O)c1ccc[nH]1 (stereo unspecified)	1.5	5	3.9	1	6.7	0.67	/
O=C(O)c1ccc(Cl)c(S(=O)(=O)Nc2ccc3cn[nH]c3c2)c1	9.5	-1	-6.8	26	3.4	0.68	/
COCc1cc(C)nc(OCC(=O)N/N=C/c2ccco2)c1C#N	2.8	1	1.1	9	/	/	/
CCN(CC)S(=O)(=O)c1ccc(N2CCOCC2)c(NC(=O)COc2ccccc2C)c1	2.2	-5	-2.2	10	1.3	0.7	i
O=C(NCCSSCCNC(=O)c1ccccc1)c1ccccc1	/	32	-7.5	/	/	/	i
CCOC(=O)C1=C(CSc2nc(-c3ccccc3)ccc2C#N)OC(N)=C(C#N)C1c1ccccc1 (stereo unspecified)	198*	-22	39*	/	-4.3	0.72	/
Cc1ccc(C)c(SCC(=O)Nc2cc(S(=O)(=O)N3CCOCC3)ccc2C)c1	/	6	3.8	/	3.6	0.68	i
COc1ccccc1C1CCN(C(=O)c2cnn(-c3ccccc3)c2C)CC1	-6.3	7	2.4	-7	2.8	0.69	i
CCOC(=O)CNc1nc2ccccc2n2c(C)nnc12	1.6	3	1.0	9	-0.5	0.66	/
COc1ccc(NS(=O)(=O)c2ccc(O)c(C(=O)OCC(=O)NC(C)C3CC4CCC3C4)c2)cc1 (stereo unspecified)	-2.8	-1	-1.1	1	1.9	0.72	i
COC(=O)c1ccc(Cn2c(C)cc(C)[n+]2C)o1	-3.0	-3	2.6	1	4.3	0.73	/
O=C(Nc1ccccc1)Nc1ccc(Cl)c(S(=O)(=O)N2CCOCC2)c1	2.6	-3	3.2	0	2.3	0.66	/
CC(C)CN1CCN(CCCc2ccccc2)C(CCO)C1 (stereo unspecified)	-0.3	-2	3.6	2	0.7	0.65	i
CSc1nsc(SCC(=O)Nc2cccc(NC(C)=O)c2)n1	-9.6	-13	1.8	99*	0.9	0.66	i
Cc1cc(N2CCCC(C(=O)Nc3cccc4ccccc34)C2)n2ncnc2n1 (stereo unspecified)	/	-3	1.6	-14	0.2	0.71	i
COc1cccc(/C=C/C(=O)OCC(=O)c2ccc3c(c2)NC(=O)CO3)c1	/	2	9.8	0	-1.8	0.71	i
N#Cc1ccccc1Sc1ccccc1C(=O)OCC(=O)N1CCN(C(=O)c2ccco2)CC1	-0.6	-3	1.8	-1	5.7	0.71	/
O=C(COC(=O)c1cccc(S(=O)(=O)N2CCc3ccccc32)c1)Nc1ncc(Cl)cc1Cl	1.4	1	-3.3	-4	1.3	0.65	i
O=C(O)c1ccc(C(=O)Nc2cccc(NC(=O)C3CCCO3)c2)cc1 (stereo unspecified)	0.7	-3	6.8	-3	1.1	0.69	/
O=S(=O)(c1ccc(F)cc1)N1CC=C(c2ccccc2)CC1	0.3	-5	5.1	-13	4.7	0.7	i
O=C(Nc1nccs1)C12CC3CC(C1)CC(C(=O)Nc1nccs1)(C3)C2	1.9	-9	1.1	-7	0.8	0.74	/
CN(Cc1ccccc1)c1nc(CN2CCOCC2)nc2scc(-c3ccccc3)c12	-7.0	-1	-0.1	-49	4.7	0.7	/
O=C(NCC(c1ccc(F)cc1)N1CCOCC1)c1cccnc1Sc1ccccc1Cl (stereo unspecified)	2.9	-3	1.7	-14	1.9	0.69	i
CCCCCCNC(=O)N1C/C=C\C(c2ccc(OC)cc2)N(Cc2ccc(F)cc2)C(=O)C1 (stereo unspecified)	4.5	5	4.1	/	4.3	/	i
COc1ccc(NC(=S)N2CCCCCC2)cc1OC	-0.6	-7	6.2	?	4.5	0.68	i
O=C(NS(=O)(=O)N1CCOCC1)C1=C(N2CCCC2)COC1=O	0.9	-2	-3.2	-2	0.4	0.73	i
C/C(CC(=O)NCc1ccc(Cl)cc1)=N\NC(=O)c1ccccc1F	0.7	-8	-1.0	-2	/	/	i
O=c1c2cc(NC(=S)NCc3cccnc3)ccc2nc2n1CCCCC2	i	-13	-2.7	0	-0.4	0.67	i
COc1ccc(Cc2nnc(SCC(=O)Nc3ccccc3C)n(N)c2=O)cc1	-1.3	5	2.9	-3	1.7	0.69	i
CN1C(=O)C2(NC(=O)c3ccccc3N2C)c2ccccc21 (stereo unspecified)	4.1	-3	-2.5	-2	-1.2	0.73	i
O=C(O)CCc1ccc(-c2cccs2)n1NC(=O)c1ccc(O)cc1	2.9	-10	3.0	21	0.1	0.64	i
Cc1cc(NC(=O)Nc2cccc3ccccc23)no1	-3.5	-7	-0.4	-16	5.5	0.69	/
CC(=O)Nc1ccccc1OCc1nnc(-c2cccs2)o1	-3.7	-8	1.2	-2	1.3	0.7	/
CCCc1nn(C)c(C(=O)Nc2cccc(CC)c2)c1Cl	-0.7	1	-38	-1	1.0	0.69	i
O=C(C[C@H]1C[C@H](C(=O)N2CCCCC2)[C@@]2(CCc3ccccc3)c3[nH]c4cc(-c5ccco5)ccc4c3CCN2C1=O)NCc1ccco1	/	2	20	/	-4.3	0.69	i
Cc1nnc(SCC(=O)Nc2ccccc2NC(=O)CSc2nnc(C)s2)s1	-0.5	-5	0.3	-2	-0.2	0.74	/

Next part.
SMILES	LANA-H2A inh	B2AR ag	HNF4A DNA FP	ALR H2O2 inh	UCH37 inh	E coli growth	FGF22 binding
CCOc1ccc(NC(=O)CSCc2cnn(-c3ccccc3)c2-n2cccc2)cc1	3.1	-5	4.6	99*	0.4	0.71	/
O=C(COc1ccc2cc(Br)ccc2c1Br)N1CCOCC1	-0.3	-1	2.6	-31	5.5	0.68	i
O=C(Cn1c(-c2ccccc2)noc1=O)NCc1ccccc1	1.8	5	1.8	-1	2.7	0.67	/
Cc1cc(C)n(C(=O)CSc2nnc(SCC(=O)n3nc(C)cc3C)s2)n1	-0.4	5	-3.5	-4	-0.8	0.74	/
CCc1ccc(-c2cc(C(F)(F)F)n3nc(C(=O)Nc4c(C)nn(Cc5ccccc5C)c4C)cc3n2)s1	2.5	15	-3.4	-7	-123	0.71	/
COc1cc(NC(=O)CS(=O)(=O)c2ccc(C)cc2)cc(OC)c1OC	3.1	-9	-0.9	-10	3.3	0.75	/
CC(=O)Nc1cccc(NC(=O)C2CCN(C(=O)c3ccco3)CC2)c1	-4.7	-1	1.6	-2	-0.5	0.7	i
Cc1ccc(-n2nc3c(=O)n(CCCC(=O)NCc4ccccc4F)nc(C)c3c2C)cc1	11	-2	-0.3	-8	1.9	0.66	i
Cc1ccc(C(=O)N2CCN(C(=O)c3ccco3)CC2)cc1NC(=O)c1ccco1	2.0	-18	-0.2	-5	3.1	0.66	i
N#CC1(Nc2ccc(-c3ccc(Cl)cc3)cc2)CCCC1	/	-7	2.2	/	/	/	i
Cc1cccn2c(=O)c3cc(C(=O)N4CCCC(C)C4)sc3nc12 (stereo unspecified)	3.2	-5	2.1	/	-309	0.7	i
CCOc1ccc(N=C(/C(C(=O)C(=O)N2CCOCC2)=C(\O)c2ccccc2)c2ccccc2)cc1	-4.4	3	-1.8	-1	6.8	0.69	i
O=C(COC(=O)c1c(Cl)cccc1Cl)NC1CCCCCCC1	0.9	-2	-0.5	8	1.4	0.68	i
COc1ccc(CC2SC(N)=NC2=O)cc1 (stereo unspecified)	-3.0	7	-0.2	/	1.0	0.64	i
CN(C)/C=C/C(=O)/C=C/c1cn(-c2ncc(C(F)(F)F)cc2Cl)c2ccccc12	-2.8	-6	8.1	39	-31	0.77	/
Cc1ccc(C)c(S(=O)(=O)N2CCN(C(=O)c3ccccn3)CC2)c1	/	2	-1.2	/	2.3	0.66	i
O=C(CSc1ncnc2scc(-c3ccc(Cl)cc3)c12)NCc1ccc2c(c1)OCO2	/	-9	-6.8	/	4.4	0.76	/

Given bar-delimited: entries from further up.
mol | LANA-H2A inh | B2AR ag | HNF4A DNA FP | ALR H2O2 inh | UCH37 inh | E coli growth | FGF22 binding
COc1ccc(CC2SC(N)=NC2=O)cc1 (stereo unspecified) | -3.0 | 7 | -0.2 | / | 1.0 | 0.64 | i
CN(C)/C=C/C(=O)/C=C/c1cn(-c2ncc(C(F)(F)F)cc2Cl)c2ccccc12 | -2.8 | -6 | 8.1 | 39 | -31 | 0.77 | /
Cc1ccc(C)c(S(=O)(=O)N2CCN(C(=O)c3ccccn3)CC2)c1 | / | 2 | -1.2 | / | 2.3 | 0.66 | i

Screening results from PubChem.

An excerpt; count on the stated rates, not on these rows.
